From PubChem BioAssay
2A StopGo: lowers the luciferase signal of an FMDV 2A StopGo reporter; AID 1159524; Potency, µM (series often up to 57.9 µM), inactives show at the highest dose signal change, negative = less light; human cells with a luciferase reporter of 2A StopGo recoding; control for the full effect not named in the record; 1.2% of 410,000 active; active = well fitted falling curve with a large enough effect; inconclusive = small, poorly fitted or top-dose-only effect; inactive = no such curve, though single readings can be large or run the other way; tested in HEK293T cells; note: nearly all actives have a fitted effect of over 45% in size; luciferase light after 4 h
RE007 growth inh: less growth of the S. pombe RE007 Vpr strain. S. pombe RE007 Vpr strain, BacTiter-Glo ATP luminescence, 24 h; control for the full effect not named in the record. Potency, µM (titrated, usually from 92.2 µM), for the others: top-dose activity change, negative = less growth. 0.21% of 360,000 active. AID 651644; active = well fitted falling curve with a large enough effect; inconclusive = small, poorly fitted or top-dose-only effect; inactive = no such curve, though single readings can be large or run the other way;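 note: nearly all actives have a fitted effect of over 50% in size; the assay follows cell death caused by Vpr and the record does not say whether a fall means rescue or toxicity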
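Fission yeast strain RE007, carrying one chromosomally integrated HIV-1 vpr copy, was seeded at OD 0.01 in PMG+AL medium with 23 nL pinned compound. After 24 h at 30 °C and 99% humidity, viability was read by BacTiter-Glo luminescence.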
An asterisk follows results filed as active; u = inconclusive; [ ] = remark or other dose. % is set by controls: 0 for no effect and ±100 for the full control effect; potency is the fitted concentration of half-maximal effect.

Fields: 2A StopGo, RE007 growth inh
> Cc1ccc(S(=O)(=O)N2C[C@]3(O)C[C@@H]4C(=O)N(c5ccccc5)C(=O)[C@@H]4C[C@]3(OC(=O)NC3CCCC3)C2)cc1
  16µM*, 3%
> CCCn1c(CC)nc([N+](=O)[O-])c1Sc1ncn[nH]1
  u, -12%
> COc1ccc(-c2ccc(C(=O)Nc3ccc4c(c3)OCO4)c3occc23)c(C)c1
  26%, 2%[18.4 µM]
> Cc1cc(C)c(C(=O)COC(=O)c2cccc(S(=O)(=O)N3CCOCC3)c2)cc1C
  0%, -10%
> CCOC(COC(=O)c1ccccc1C(=O)O)c1ccccc1 (stereo not drawn)
  -12%, -5%
> Cc1cccc(C)c1-n1nnnc1C1c2ccccc2C(=O)N1CCc1ccccc1F (stereo not drawn)
  51%[activator], -24%
> COc1cccc(CNc2nc3cc(-c4ccccc4)sc3c(=O)n2C)c1
  0%, -5%[18.4 µM]
> Cc1cccc(C)c1NC(=O)C1(C)CN(S(C)(=O)=O)CC(=O)N1CCCn1ccnc1 (stereo not drawn)
  -12%, 6%
> C[C@@H]1CN([C@H](C)CO)C(=O)CCCn2nncc2CO[C@H]1CN(C)C(=O)CCC(F)(F)F
  -21%, 0%
> O=C(NC1CCCC1)C(c1ccccc1)n1c(CSCCOc2ccccc2)nc2ccccc21 (stereo not drawn)
  u, -2%
> O=S1(=O)CCN(CCCCc2ccccc2)CC1
  4%, 0%
> COc1cc(CN2C[C@@H](CO)O[C@@H](n3cnc4c(N5CCCC5)ncnc43)C2)cc(OC)c1OC
  0%, 0%
> Clc1ccc2nc(-c3cccc(Br)c3)c(Cc3ccsc3)n2c1
  42%[activator], -22%
> COc1cc2c(cc1OC)/C(=C/C(C)=O)OC2
  -5%, 9%
> CCCCNC(=O)c1ccc2nc(CC)c(N(CC)CCN(C)C)n2c1
  -14%, -4%
> O=C(Nc1ccc2c(c1)OCCO2)C(C1CC1)N1CCN(c2ccc(C(F)(F)F)cn2)CC1 (stereo not drawn)
  -7%, -15%
> COc1ccc(Cc2c(-c3ccc(F)cc3)nc3ccc(Cl)cn23)c(C)c1
  29%, 5%
> COc1cccc(-c2cc3nc(NCc4cccnc4)n(C)c(=O)c3s2)c1
  11%, 12%
> COc1ccc(C(=O)CSC(=S)N2CCCCC2)cc1
  -22%, -17%
> Oc1ccc(C[C@@H](CN2CCC[C@@H]2CN2C(=S)NC[C@@H]2Cc2ccccc2)N2C[C@H](Cc3ccccc3)N(CCc3ccccc3)C2=S)cc1
  -1%, -11%
> CC(C)COC(=O)N(C)C[C@@H]1OCc2cnnn2CCCC(=O)N([C@@H](C)CO)C[C@@H]1C
  -13%, -25%
> CCN(c1ccccc1)S(=O)(=O)c1ccc(C(=O)N2CCN(c3ccccc3F)CC2)cc1
  -8%, 4%
> O=C1CSC(=S)N1N=Cc1ccc(OCc2ccccc2)cc1
  71%[activator], -11%
> Nc1nc(N)c(N=O)c(Nc2ccc(Cl)c(Cl)c2)n1
  -20%, -20%
> COC(=O)[C@@]1(Cc2ccc(F)cc2)[C@H]2c3cc(C(=O)N(C)C)n(CCCNc4ncc(C(F)(F)F)cc4Cl)c3C[C@H]2CN1C(=O)c1ccccc1
  -16%, -17%
> Cc1ccccc1Oc1ccc2c(c1)[C@@H]1C[C@H]3[C@@H](C(=O)N1CC2)[C@H](C)ON3C
  u, 0%
> O[C@@H]1CN(Cc2cccs2)[C@@H](c2ccccc2)C[C@H]1n1cc(-c2ccc(F)cc2)nn1
  25%, -4%
> CC(=O)Nc1ccc(S(=O)(=O)N2Cc3cnnn3-c3ccccc3C2C#N)cc1 (stereo not drawn)
  -9%, 13%
> C[C@H](O)[C@@H]1CN2CCc3c([nH]c4ccccc34)[C@@H]2C[C@@H]1N(C)C(=O)Nc1cccc2ccccc12
  -7%, -29%
> CC(O)(c1cccc(F)c1)c1nc(-c2cc3ccccc3o2)cs1 (stereo not drawn)
  -22%, u
> C#CCNC(=O)C[C@@H]1C[C@@]2(C(=O)OCC)CCCC=C2N(Cc2ccc(Cl)cc2Cl)C1=O
  -3%, -14%
> CC(=O)c1ccc(N2CCN(C(=O)COc3ccc4ccccc4c3)CC2)cc1
  -12%, 21%
> COc1ccccc1C(=O)NCCCNc1nc2cc(C)cc(C)c2cc1C#N
  u, 4%
> O=C(O)/C=C/C(=O)Nc1nc(-c2ccc3ccccc3c2)cs1
  -23%, -10%
> CC(=O)Nc1cc(-c2ccc(N3CCN(C)CC3)cc2)cn2c(-c3ccc(S(C)(=O)=O)cc3)cnc12
  -7%, -10%[18.4 µM]
> CCCCN(CCCC)Cc1cc(=O)oc2cc(OC)ccc12
  -10%, 4%
> O=C(Nc1ccn(CCCN2CCN(Cc3cccc4ccccc34)CC2)c(=O)n1)OCc1ccccc1
  -17%, -6%
> COc1ccc(C(C)(NC(C)=O)c2nc(-c3cccnc3)cs2)cc1 (stereo not drawn)
  -13%, 19%[18.4 µM]
> C#CCOCCOCCOCCNc1nc(N2CCN(C(=O)[C@H]([C@@H](C)CC)n3cc(CCCN=C(N)N)nn3)CC2)nc(N2CCN(C(=O)[C@H]([C@@H](C)CC)n3cc(CCC(=O)O)nn3)CC2)n1
  -9%, -8%
> CC(NC(=O)c1ccccc1Cl)c1ccc(-n2ccnc2)cc1 (stereo not drawn)
  2%, 7%

The list goes on:
SMILES,2A StopGo,RE007 growth inh
CC(=O)NC(c1ccccc1)c1nc(-c2cnc3ccccc3c2)cs1 (stereo not drawn),-3%,10%[18.4 µM]
CC(C)c1ccc(C(=O)OCC(=O)Nc2cccc(S(=O)(=O)NC3=NCCC3)c2)cc1,5%,18%
COc1ccc(C(=O)OC2C[C@H]3CC[C@H](C2)N3C)cc1OC (stereo partly drawn),-25%,-9%[18.4 µM]
CC1(C(=O)NCc2ccccc2)CN(S(C)(=O)=O)CC(=O)N1CCc1ccccc1F (stereo not drawn),1%,0%
Cc1cccc(C)c1NC(=O)C(CCc1ccccc1)n1c(=O)c(-c2ccccc2)nc2ccccc21 (stereo not drawn),-14%,-28%
Cc1ccc(S(=O)(=O)c2nc(/C=C/c3ccccc3)oc2N2CCC(C(N)=O)CC2)cc1,4%,-5%
CC(C)(C)NC(=O)C(c1ccc(C#N)cc1)n1c(=O)c(-c2cc3ccccc3[nH]2)nc2ccccc21 (stereo not drawn),7%,-11%
COc1ccccc1CCNC(=O)C1CC(=O)N(c2ccccc2F)C1 (stereo not drawn),u,13%
Cc1ccccc1-c1ccc2c(c1)O[C@@H](CN(C)C(=O)Nc1ccc(C(F)(F)F)cc1)[C@H](C)CN([C@@H](C)CO)S2(=O)=O,-24%,8%
CCc1cccc(C)c1NC(=O)COC(=O)CCn1c(C)csc1=O,6%,-7%
CC(=O)Nc1cccc(-c2ccnc3c2CC(C(=O)Nc2cccnc2)O3)c1 (stereo not drawn),-2%,6%
CC(C)CC1NC(=O)c2cc3ccccc3cc2-n2c1nc1ccc(Cl)cc1c2=O (stereo not drawn),u,-26%
c1ccc2c(-c3cccc4nccn34)cncc2c1,-2%,3%[18.4 µM]
CCc1nc2ccc(C(=O)NC3CCN(Cc4ccccc4)CC3)cn2c1N(CC)CCOC,-14%,-19%[18.4 µM]
C[C@@H]1CCCCO[C@@H](CN(C)S(=O)(=O)c2ccccc2)[C@@H](C)CN([C@H](C)CO)C(=O)c2cc(NS(=O)(=O)c3ccc(F)cc3)ccc2O1,-13%,-13%
CN[C@H]1C[C@H]2c3[nH]c4ccc(-c5ccc(OC)cc5)cc4c3CCN2C(=O)[C@H]1[C@H](C)O,u,-1%
O=C(CNC(=O)OCc1ccccc1)NCC(=O)NC(Cc1c[nH]c2ccccc12)C(=O)O (stereo not drawn),0%,6%
Cc1ccc(S(=O)(=O)N2C[C@H]3N(C(=O)OC(C)C)N(C(=O)OC(C)C)C[C@H](OC(=O)Nc4cccs4)[C@@]3(O)C2)cc1,u,-2%
Cc1cccc(C)c1-n1nnnc1C1c2ccccc2C(=O)N1CCCn1ccnc1 (stereo not drawn),-15%,4%
Cc1cccc(C)c1N1C(=O)c2ccccc2NC(=O)C1C(=O)NCC(C)C (stereo not drawn),-14%,11%
CCn1c(SCC(=O)Nc2ccccc2)nc2c(c1=O)SCC2,-12%,2%
CCOC(=O)C1CCCN(C(=O)c2cccnc2Oc2ccccc2)CC1 (stereo not drawn),-2%,-5%[18.4 µM]
O=C(COC(=O)c1cnccn1)NCc1ccccc1Cl,1%,6%
COc1ccccc1NC(=O)Nc1ccnn1C1CCN(C(=O)C2CCOC2)CC1 (stereo not drawn),-2%,2%
CCc1nc2ccc(C(=O)NCCC(C)C)cn2c1N(CC)CCOC,-25%,2%
COc1ccc(-c2oc3c(c2C(=O)OCCO)C(OCCO)CCC3)cc1 (stereo not drawn),-20%,4%
OC[C@@H]1CN(Cc2ccccc2)C[C@H](n2ccc3c(N4CCCC4)ncnc32)O1,-8%,-16%
COc1cc(NS(=O)(=O)c2ccc(C)cc2)c2c(c1N)C(=O)c1ccccc1C2=O,48%[activator],-22%
CCCC[C@@H]1C[C@H]1[C@@H](NC(=O)c1ccco1)c1ccccc1C(F)(F)F,-23%,-7%
CN(C)CCCNC(=S)N1CCC(C(=O)c2ccc(Cl)cc2)CC1,u,-5%
OC[C@@H]1CN(CCc2ccccc2)C[C@H](n2cnc3c(N4CCOCC4)ncnc32)O1,-16%,3%
CCCNC(=O)c1c(CSc2ccc(Cl)cc2)noc1C(=O)NCc1ccccc1,-24%,-3%
COc1ccc(CCNC(=O)CSC2=NS(=O)(=O)c3cc(F)ccc3N2)cc1OC,-5%,6%
c1cnc2c(-c3ccc4nccn4c3)cccc2c1,-15%,-15%
CCCCC1CCCOC(C(=O)NCCNCCO)(C(F)(F)F)C1 (stereo not drawn),-5%,-8%
CC(C)(C)c1ccc(S(=O)(=O)NC(=O)C2(C)CCN2C(=O)Cc2cccs2)cc1 (stereo not drawn),-18%,7%

Whole records from above. Values in the order: 2A StopGo, RE007 growth inh
`CCn1c(SCC(=O)Nc2ccccc2)nc2c(c1=O)SCC2` reads -12%, 2%
`CCCC[C@@H]1C[C@H]1[C@@H](NC(=O)c1ccco1)c1ccccc1C(F)(F)F` reads -23%, -7%
`Oc1ccc(C[C@@H](CN2CCC[C@@H]2CN2C(=S)NC[C@@H]2Cc2ccccc2)N2C[C@H](Cc3ccccc3)N(CCc3ccccc3)C2=S)cc1` reads -1%, -11%
`CCCCNC(=O)c1ccc2nc(CC)c(N(CC)CCN(C)C)n2c1` reads -14%, -4%

By substructure: the compounds so far containing a tert-butyl group (2)
SMILES,2A StopGo,RE007 growth inh
CC(C)(C)NC(=O)C(c1ccc(C#N)cc1)n1c(=O)c(-c2cc3ccccc3[nH]2)nc2ccccc21 (stereo not drawn),7%,-11%
CC(C)(C)c1ccc(S(=O)(=O)NC(=O)C2(C)CCN2C(=O)Cc2cccs2)cc1 (stereo not drawn),-18%,7%

The listing continues:
SMILES,2A StopGo,RE007 growth inh
COc1ccc(C(=O)C2CCCN(CCc3ccccc3)C2)cc1OC (stereo not drawn),-25%,u
CN(C(=O)COC(=O)CSc1ccccc1)c1c(N)n(Cc2ccccc2)c(=O)[nH]c1=O,-18%,10%
CC(=O)Nc1ccc(NC(=O)N2CCOCC2)cc1,-16%,10%
Cc1c(NC(=O)c2cccc(NC(=O)Cc3ccccc3Cl)c2)c(=O)n(-c2ccccc2)n1C,-10%,2%
COc1ccc2nc(C3CCCCC3)c3c(c2c1)CCC3,-15%,-21%
COc1ccc(C(C(=O)Nc2ccc(F)cc2)N2CCN(c3ccncc3)CC2)cc1 (stereo not drawn),19%,-16%
CC1=C(C(=O)N2CCOCC2)CC(CC(=O)NCCN2CCOCC2)C(=O)N1CCC1=CCCCC1 (stereo not drawn),-21%,2%
CCCCCc1c(-c2ccc(F)cc2F)ncn1CCc1ccccc1OC,u,-27%
COc1cc(-c2c(CCO)sc3ccccc23)cc(OC)c1OC,-17%,-2%
COc1ccc(CN(C)C(=O)CNC(=O)c2sc3ccccc3c2Cl)c(OC)c1,-28%,0%
COc1ccc2nc(-c3ccccn3)ccc2c1,0%,u
O=C(Oc1ccccc1)N1CCCCC1,14%,u
Cc1ccc(C2=NOC(C)(c3sc(-c4ccc(Cl)cc4)nc3C)C2)cc1 (stereo not drawn),59%[activator],-1%
C#CCN(C[C@H]1[C@H](OC(=O)NCCCCCC)[C@H](OC(=O)NCCCCCC)C[C@@H](C(=O)OC)[C@H]1C(=O)OC)S(=O)(=O)c1ccc(C)cc1,-11%,5%
C#CCn1c2ccccc2c(=O)n1C(C)CBr (stereo not drawn),-18%,-13%
CCN(CC(=O)Nc1ccc(NC(C)=O)cc1)C(=O)c1ccc(COc2ccc(C(C)(C)C)cc2)cc1,-24%,-2%
O=C(C[C@H]1C(=O)N(c2ccccc2)C[C@@H]1Cc1ccccc1)Nc1ccc(Br)cc1,0%,-11%
CCc1ccc2c(c1)NC(=O)C2(C)Cc1ccccc1Cl (stereo not drawn),-13%,5%
C=CCC[C@@H](CCCCC)OC(=O)/C=C/[C@H](O)[C@@H](O)C[C@H](O)CC=C,-17%,-7%
O=C(NCCN1CCOCC1)C1CCN(S(=O)(=O)c2ccccc2)CC1,-13%,-2%
C[C@H](CO)N1C[C@H](C)[C@@H](CN(C)C(=O)Nc2ccc(F)cc2)OCc2cnnn2CCCC1=O,-23%,9%

An excerpt; rates above refer to the full screens.
